Cruzain inh noDet – qHTS Assay for Promiscuous and Specific Inhibitors of Cruzain (without detergent) | purified cruzain, Z-FR-AMC fluorescence, no detergent | Cruzipain (Trypanosoma cruzi), P25779 | Potency, µM, inactives show max response, negative = inhibition, hits mostly inhibitors | 2.3% of 200,000 active;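 note: plate controls were enzyme without inhibitor for no effect and buffer without enzyme for full effect; nearly all actives have a fitted effect of over 40% in size; top concentration of the series not given in the record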
Target sequence (P25779 123-467 limits assumed): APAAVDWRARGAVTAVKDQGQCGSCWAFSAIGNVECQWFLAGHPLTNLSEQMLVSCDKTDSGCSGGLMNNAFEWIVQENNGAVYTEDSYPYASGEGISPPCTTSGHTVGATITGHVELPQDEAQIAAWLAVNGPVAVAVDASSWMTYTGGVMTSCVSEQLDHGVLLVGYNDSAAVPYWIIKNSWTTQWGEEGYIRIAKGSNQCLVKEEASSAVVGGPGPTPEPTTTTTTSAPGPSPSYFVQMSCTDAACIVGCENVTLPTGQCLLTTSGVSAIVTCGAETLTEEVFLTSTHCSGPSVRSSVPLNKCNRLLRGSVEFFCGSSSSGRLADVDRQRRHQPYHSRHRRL
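Detergent-free condition (0.00005% Triton X-100) in acetate buffer pH 5.5 with DTT. 1.5 nM enzyme and compound were pre-mixed 15 min, then 2 uM Z-FR-AMC substrate added; reaction progress from fluorescence change between first and third reads (60 s).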
SARS PLpro yeast – qHTS of Yeast-based Assay for SARS-CoV PLP; S. cerevisiae expressing SARS-CoV PLpro, growth rescue; control for the full effect not named in the record; Potency, µM (highest dose often 32.9 µM), inactives show at the highest dose activity, positive = growth rescue; 0.19% of 330,000 active; active means well fitted rising curve with a large enough effect; inconclusive means small, poorly fitted or top-dose-only effect; inactive means no such curve, though single readings can be large or run the other way; note: 0% is about no effect; nearly all actives have a fitted effect of over 55% in size; growth read by luminescence after 48 h
NS1 inh – qHTS Assay for Inhibitors of Influenza NS1 Protein Function; Potency, µM (titrated, usually from 46.1 µM), without a hit: at the top dose activity, positive = more growth; 0.4% of 270,000 active; S. cerevisiae slowed by influenza A NS1, growth recovery by OD600; active means well fitted rising curve with a large enough effect; inconclusive means small, poorly fitted or top-dose-only effect; inactive means no such curve, though single readings can be large or run the other way; note: nearly all actives have a fitted effect of over 50% in size
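Recovery from NS1-induced slow growth read by OD600 in budding yeast switched to galactose assay medium (pH 6.0, -URA) at 1:100 dilution. Compound 23 nl per well; the matching strain lacking NS1 serves as control.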
2A StopGo – High Throughput Screening for Foot and Mouth Disease Virus Antivirals. human cells with a luciferase reporter of 2A StopGo recoding; control for the full effect not named in the record. Potency, µM (doses to about 57.9 µM), for inactives: top-dose signal change, negative = less light. 1.2% of 410,000 active. AID 1159524, 2015; active = well fitted falling curve with a large enough effect; inconclusive = small, poorly fitted or top-dose-only effect; inactive = no such curve, though single readings can be large or run the other way; tested in HEK293T cells; note: % is set by controls: 0 for no effect and ±100 for the full control effect; nearly all actives have a fitted effect of over 45% in size; luciferase light after 4 h
Cruzain Triton – qHTS Assay for Promiscuous and Specific Inhibitors of Cruzain (with detergent) | Cruzipain (Trypanosoma cruzi), P25779 | purified cruzain, Z-FR-AMC fluorescence, 0.01% Triton | AID 1478, 2009 | Potency, µM, for the others: max response, negative = inhibition, most hits filed as inhibitors | 0.43% of 200,000 active;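 note: plate controls were neutral wells for no effect and buffer without enzyme for full effect; nearly all actives have a fitted effect of over 40% in size; top concentration of the series not given in the record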
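Detergent-containing arm of a paired screen for aggregation-based inhibition: 0.01% Triton X-100 present. Cruzain at 1.5 nM cleaved 2 uM Z-FR-AMC at pH 5.5 with 5 mM DTT; AMC fluorescence gain over 60 s measured activity.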
MARV entry inh – qHTS for inhibitors of binding or entry into cells for Marburg Virus | Marburg virus pseudotyped entry inhibition, cell reporter; control for the full effect not named in the record; about a third of the inactives were read at about 46 µM | Potency, µM (doses to about 37.8 µM), for the others: top-dose activity change, negative = inhibition, most hits filed as inhibitors | 1.8% of 300,000 active; active = well fitted inhibition curve with a large enough effect; inconclusive = small, poorly fitted or top-dose-only effect, or effect the other way; inactive = flat fitted curve, though single readings scatter; tested in HEK293 cells; about a fifth of its hits are not listed in these tables; note: % is set by controls: 0 for no effect and ±100 for the full control effect; luciferase read-out
RE007 growth inh – qHTS Assay for Inhibitors of the HIV-1 protein Vpr; 0.21% of 360,000 active; Potency, µM (doses to about 92.2 µM), without a hit: at the highest dose activity change, negative = less growth; S. pombe RE007 Vpr strain, BacTiter-Glo ATP luminescence, 24 h; control for the full effect not named in the record; active = well fitted falling curve with a large enough effect; inconclusive = small, poorly fitted or top-dose-only effect; inactive = no such curve, though single readings can be large or run the other way;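 note: % is set by controls: 0 for no effect and ±100 for the full control effect; nearly all actives have a fitted effect of over 50% in size; the assay follows cell death caused by Vpr and the record does not say whether a fall means rescue or toxicity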
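Fission yeast strain RE007, carrying one chromosomally integrated HIV-1 vpr copy, was seeded at OD 0.01 in PMG+AL medium with 23 nL pinned compound. After 24 h at 30 °C and 99% humidity, viability was read by BacTiter-Glo luminescence.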
Lassa entry inh – qHTS for Inhibitors of binding or entry into cells for Lassa Virus; Lassa virus pseudotype entry inhibition, cell reporter; control for the full effect not named in the record; Potency, µM (top dose mostly 37.9 µM), inactives show at the top dose activity change, negative = inhibition, hits mostly inhibitors; 1.2% of 300,000 active; active means well fitted inhibition curve with a large enough effect; inconclusive means small, poorly fitted or top-dose-only effect, or effect the other way; inactive means flat fitted curve, though single readings scatter; tested in HEK293 cells; note: % is set by controls: 0 for no effect and ±100 for the full control effect; nearly all actives have a fitted effect of over 50% in size; luciferase read-out
Starred values were filed as active, the others as inactive; ? = inconclusive; · = no result given; & = joins results of further samples; [ ] = remark or other dose. Unless noted, calls come from the whole dose curve; as a rule, active = well fitted curve in the direction sought with a large enough effect; inconclusive = small, poorly fitted or top-dose-only effect, or another doubt; inactive = no such curve, though single readings can be large; an effect the other way counts as inactive or inconclusive. Potency is the fitted concentration of half-maximal effect. No enrichment for hits; about 4.6% have a hit in one of these screens.

The first 2 records, ahead of the listing:
SMILES | Cruzain inh noDet | SARS PLpro yeast | NS1 inh | 2A StopGo | Cruzain Triton | MARV entry inh | RE007 growth inh | Lassa entry inh
CC(C)Oc1ccc(Cn2c(-c3ccco3)n[nH]c2=S)cc1 | 4% | 22µM* | 9% | 3% | -12% | 11%[46.1 µM] | 20% | 6%
COc1ccc(OCc2nnc(SCC(=O)NNC(=O)c3ccc(C)cc3)n2C)cc1 | 9% | 4% | 9% | -24% | 0.2% | 3% | 16% | 2%

Results (from the top)
SMILES | Cruzain inh noDet | SARS PLpro yeast | NS1 inh | 2A StopGo | Cruzain Triton | MARV entry inh | RE007 growth inh | Lassa entry inh
CC(C)Oc1ccc(Cn2c(-c3ccco3)n[nH]c2=S)cc1 | 4% | 22µM* | 9% | 3% | -12% | 11%[46.1 µM] | 20% | 6%
COc1ccc(OCc2nnc(SCC(=O)NNC(=O)c3ccc(C)cc3)n2C)cc1 | 9% | 4% | 9% | -24% | 0.2% | 3% | 16% | 2%
COc1ccc(S(=O)(=O)Cc2ccc(C(=O)NCc3ccccc3)o2)cc1 | · | -2% | -1% | ? | · | · | -9% | ·
Cn1c(=O)oc2cc(S(=O)(=O)N3CCCC(C(=O)N4CCN(c5ccc(Cl)cc5)CC4)C3)ccc21 (stereo not drawn) | 1% | · | · | ? | -0.7% | -3%[46.1 µM] | · | ?
CC1Cc2ccccc2N1C(=O)CSc1nnc2c(n1)[nH]c1ccc(F)cc12 (stereo not drawn) | ? | -4% | 9% | ? | -4.7% | -11%[46.1 µM] | 20% | 7%
COc1ccccc1C1C2=C(CC(C)(C)CC2=O)Nc2nnnn21 (stereo not drawn) | 7% | 7% | 2% | -16% | 2.3% | 14% | 12% | 14%
CCc1[nH]c(=O)c(C#N)c2c1CCCC2 | -9% | 8% | · | 6% | 1.6% | 24%&24% | 10% | 28%
Cc1oc2cc([N+](=O)[O-])c(O)c([N+](=O)[O-])c2c1C(=O)c1ccc(Br)cc1 | · | -16% | · | ? | · | -2%[46.1 µM] | -15% | -18%[46.1 µM]
COc1cc(NC(=O)c2ccc(Cl)cc2)c(OC)cc1NC(=O)CN1CCOCC1 | ? | -6% | -57% | ? | 0.5% | ? | 13% | ?
COc1ccccc1C(=O)NC1(C(F)(F)F)C(=O)Nc2c1c(=O)[nH]c(=O)n2CCc1ccccc1 (stereo not drawn) | 4% | · | · | -8% | 0.1% | 22%[46.1 µM] | · | -8%[46.1 µM]
CCOC(=O)c1ccc(NC(=O)Cc2cccs2)cc1 | · | 7% | -21% | 64%[activator] | · | · | -19% | ·
COc1ccc(OC)c(-c2csc(NC(=O)CSc3ccc(Br)cc3)n2)c1 | -80% | 23% | -14% | 0% | -4.6% | -38% | 5% | 7.9µM*
C=CC[n+]1c(-c2ccc(OC)cc2)csc1NNC(=O)Nc1ccccc1 | ? | -10% | 2% | · | -5.4% | -50% | 14% | ?
CCOC(=O)N1CCN(C(=O)/C(=C/c2cccs2)NC(=O)c2ccc(OC)c(OC)c2)CC1 | · | 4% | -5% | -2% | · | ? | -9% | ·
CC(=O)N1c2ccc(S(=O)(=O)NCCC(=O)NCCc3ccc(C)cc3)cc2CC1C (stereo not drawn) | · | -1% | -9% | -28% | · | · | -7% | ·
CCN1C(=O)C(=C2C=C(C)N(Cc3ccco3)C(C)=C2)C(=O)N(CC)C1=S | · | 2% | · | -12% | · | ? | 1% | -2%[46.1 µM]
COc1ccc(CN(Cc2ccccn2)S(=O)(=O)c2ccc(-n3cnnn3)c(OC)c2)cc1 | ? | -11% | -34% | · | -3.5% | 1% | 13% | ?
CCSc1nc2c(c(=O)n(C)c(=O)n2C)n1Cc1ccc(Cl)cc1 | · | · | -4% | ? | · | -4%&-36% | 7% | -9%
COc1ccc(C(=O)NCC(c2ccco2)N2CCc3ccccc32)c(OC)c1 (stereo not drawn) | · | -3% | · | ? | · | ? | 0% | ?
Cc1cc(NC(=O)c2ccc(COc3ccccc3Cl)o2)no1 | · | 2% | · | -17% | · | ? | -9% | -12%[46.1 µM]

Shown with two lines to a compound: part of the list above
Under each structure: Cruzain inh noDet, SARS PLpro yeast, NS1 inh, 2A StopGo, Cruzain Triton, MARV entry inh, RE007 growth inh, Lassa entry inh
C=CC[n+]1c(-c2ccc(OC)cc2)csc1NNC(=O)Nc1ccccc1
→ ?, -10%, 2%, ·, -5.4%, -50%, 14%, ?
Cc1cc(NC(=O)c2ccc(COc3ccccc3Cl)o2)no1
→ ·, 2%, ·, -17%, ·, ?, -9%, -12%[46.1 µM]
CCOC(=O)N1CCN(C(=O)/C(=C/c2cccs2)NC(=O)c2ccc(OC)c(OC)c2)CC1
→ ·, 4%, -5%, -2%, ·, ?, -9%, ·
COc1ccc(CN(Cc2ccccn2)S(=O)(=O)c2ccc(-n3cnnn3)c(OC)c2)cc1
→ ?, -11%, -34%, ·, -3.5%, 1%, 13%, ?

New compounds follow
SMILES | Cruzain inh noDet | SARS PLpro yeast | NS1 inh | 2A StopGo | Cruzain Triton | MARV entry inh | RE007 growth inh | Lassa entry inh
CCOC(=O)C1=C(Cn2cnc3ccccc32)NC(=O)NC1c1cc(C)ccc1C (stereo not drawn) | ? | -5% | -49% | ? | -16% | ? | 11% | ?
CNc1nc(C)nc(-c2ccccc2O)n1 | -3% | 2% | -4% | 43%[activator] | -3.5% | · | 2% | ·
O=C(Nc1ccc2c(c1)CCC2)c1cnn2c1NC(c1ccco1)CC2C(F)(F)F (stereo not drawn) | ? | -3% | 9% | -4% | 1.3% | 6% | 16% | -3%
CC1CCC(NC(=O)c2cc3c(s2)CS(=O)(=O)C3)CC1 (stereo not drawn) | -10% | 1% | 5% | 1% | -2.6% | 0% | 4% | 9%
CCC(C(=O)Nc1ccc(C(=O)Nc2ccccc2C(=O)O)cc1)c1ccccc1 (stereo not drawn) | · | 2% | 14% | -30% | · | -10%[46.1 µM] | 14% | -21%[46.1 µM]
O=C(Cc1ccc(NC(=O)N2CCSc3ncccc32)cc1)NCc1ccccc1Cl | -11% | · | · | ? | -7.0% | · | · | 4%[46.1 µM]
CC(C)(C)c1ccc(C(=O)N/C(=C\c2ccco2)C(=O)O)cc1 | · | 0% | 1% | ? | · | 7%[46.1 µM] | -8% | 9%
N#Cc1ccc(CSc2nnc(-c3cccc(S(=O)(=O)N4CCCCC4)c3)o2)cc1 | -23% | -4% | -27% | -28% | 3.1% | ? | -3% | ?
CCCCNC(=O)C(C#N)c1nc2ccccc2nc1N1CCN(c2ccccc2F)CC1 (stereo not drawn) | ? | -2% | -14% | 30% | -4.3% | -3%&12% | 3% | 9%
O=C(CSc1ncnc2c1oc1ccccc12)Nc1cccc(Cl)c1 | -11% | -6% | -11% | 25% | -3.0% | ? | -4% | 18%
COc1ccc(CCNC(=O)CCCn2c(=O)c3ccccc3n(Cc3ccccc3C)c2=O)cc1OC | -14% | · | · | 10% | -1.3% | -2%[46.1 µM] | · | 4%[46.1 µM]
CC1CC(=Cc2ccc(N)cc2)C(=O)O1 (stereo not drawn) | · | · | · | 22% | · | ? | -6% | 1%[46.1 µM]
Cc1c(C(=O)OC2CCCC2)[nH]c2c1C(=O)CC(c1ccc(C(C)(C)C)cc1)C2 (stereo not drawn) | -8% | · | · | 0% | 0.8% | 2%[46.1 µM] | · | 20%[46.1 µM]
Cc1cc(O)c(-c2cc(C(=O)NCCc3ccc(S(N)(=O)=O)cc3)[nH]n2)cc1C | · | 1% | -2% | -28% | · | ? | 1% | -2%
Cn1nccc1C(=O)NC(=S)Nc1cc(Cl)cc(Cl)c1 | · | -1% | 9% | -9% | · | ? | 1% | -2%
CC(=O)Nc1ccc(-c2nc3ccc(NC(C)=O)cc3o2)cc1 | · | 0% | 0% | 64%[activator] | · | · | 5% | ·
COc1cc(C(=O)NCC(=O)N/N=C\C(C)=C/c2ccccc2)cc(OC)c1OC | · | 1% | -11% | -10% | · | ? | 25% | -23%
Cc1ccc(N2CCN(C(=O)NC3CCCCC3)CC2C)cc1 (stereo not drawn) | · | -1% | -5% | -4% | · | · | -5% | ·
Cn1cc(-c2ccccc2C(=O)O)c(=O)c2ccccc21 | · | 2% | 8% | 0% | · | · | 2% | ·
CCN(CC)c1nc(N)nc(N(c2ccccc2)c2ccccc2)n1 | 15% | 5% | 6% | 0% | -8.4% | · | 9% | ·
Cc1ccc(C2CC(=O)Oc3cc(C)c(Br)c(C)c32)cc1 (stereo not drawn) | -30% | -43% | · | ? | -3.2% | · | 17% | ·
Cc1cc(C)nc(Sc2ccc3nnc(C(F)(F)C(F)(F)C(F)(F)F)n3n2)n1 | 30% | 4% | -4% | · | 1.8% | 4%&3% | 15% | -2%
O=C(C1CCCCC1)N1CCN(c2nc(-c3ccc(F)cc3)cs2)CC1 | · | -7% | · | ? | · | -10%[46.1 µM] | ? | -3%
CN(C)/C=C1/C(=O)NC(=O)N(CCNc2ncc(C(F)(F)F)cc2Cl)C1=O | · | 0% | 0% | ? | · | ? | 8% | 1%
CC1CCc2c(nc3ncnn3c2NCCc2ccccc2F)C1 (stereo not drawn) | · | -1% | -4% | -23% | · | ? | -9% | -18%[46.1 µM]
CN(C)S(=O)(=O)c1ccc(N2CCCC2)c(C(=O)NCc2cccc(C(F)(F)F)c2)c1 | -1% | -1% | 1% | -1% | 1.7% | 3% | -12% | -1%
NC(=O)[C@@H]1CC2(CC(c3cccc(NC(=O)CC(c4ccccc4)c4ccccc4)c3)=NO2)CN1C(=O)[C@@H]1CCC(=O)N1 (stereo partly drawn) | · | 0% | -3% | -19% | · | · | -9% | ·
Cc1ccc2nc(-c3ccc(NC(=O)COc4ccccc4)cc3)sc2c1 | ? | · | · | 31%[activator] | 0.1% | · | · | 10%[46.1 µM]
CCOc1ccc(S(=O)(=O)N2CCN(Cc3ccc4c(c3)OCO4)CC2)cc1C | · | -3% | -53% | 2% | · | -20%[46.1 µM] | -8% | ?
